Bioassay records: PubChem BioAssay, ICCB-Longwood Screening Facility, Harvard Medical School
Sa growth inh: blocks Staphylococcus aureus growth; 0.53% of 170,000 active; relative growth, % (test concentration not listed); S. aureus RN4220 growth, OD600, 20 h, 42 °C; active compounds read low;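 active = growth at 42 °C up to 50% and 20 or more points under that at 30 °C, or under 10% at both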;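 also: 300 nL library stock went into each well; scaled to the means of positive and negative controls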
GIV Gai3 FP: inhibitors of GIV GBA-motif binding to rat Galpha-i3; Galpha-i3/FITC-GIV peptide fluorescence polarization, 90 min; active compounds read low; scaled: aluminum fluoride 0%, vehicle 100%; percent of control (FP), % (test concentration not listed); 0.42% of 210,000 active; AID 1224905;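 active = replicate mean at 85% of control or lower, very high polarization wells dropped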;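 also: lower values mean more displacement of the GIV peptide from Galpha-i3; wells of about 15 µL received 100 nL stock; the first replicate is given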
Target sequence (P08753 whole entry, looked up): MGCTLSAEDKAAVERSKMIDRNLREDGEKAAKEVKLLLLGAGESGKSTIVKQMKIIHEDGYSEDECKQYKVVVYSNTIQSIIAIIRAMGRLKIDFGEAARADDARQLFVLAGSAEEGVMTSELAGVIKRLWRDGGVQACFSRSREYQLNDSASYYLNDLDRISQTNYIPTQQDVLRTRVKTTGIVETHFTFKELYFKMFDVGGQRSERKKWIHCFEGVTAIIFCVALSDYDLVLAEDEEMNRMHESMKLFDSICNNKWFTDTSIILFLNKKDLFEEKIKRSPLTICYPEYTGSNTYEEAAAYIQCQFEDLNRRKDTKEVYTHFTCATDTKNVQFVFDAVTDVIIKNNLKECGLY
HCMV UL50-53 inh: disrupts HCMV UL50-UL53 complex binding; HTRF UL50-UL53 interaction, normalized percent inhibition; inhibition, % (no concentration beside the values); 0.15% of 190,000 active; AID 1918969;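 active = both replicates at 50% or more, plus weaker picks with an unusually low signal ratio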;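 also: stock transfer was 100 nL into about 20 µL; 0% = negative control wells and 100% = wells with untagged competitor protein; inactives centre near -12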
Sa growth inh second temp: second read-out of Sa growth inh, no call of its own (marks repeat the call); relative growth, %; measured here: growth at 30 °C;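 optical density after 20 h as mean of two plates; 100% = untreated growth and lower means inhibition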
The depositor's hits bear a star; · = no result given; & = joins results of further samples. Hits appear at their usual frequency; about 0.79% have a hit in one of these screens.

Sequence of screens: HCMV UL50-53 inh, GIV Gai3 FP, Sa growth inh second temp, Sa growth inh
> COc1ccc(Cl)cc1N1Cc2cc(C)c(C)cc2C1
→ -4, 113, 83, 104
> CCCCN(C)S(=O)(=O)c1ccc(C(=O)Nc2ccc(-c3nc4ccc(C)cc4s3)cc2)cc1
→ ·, 103, 88, 94
> Nn1c(Cc2ccccc2)nc2cc(Cl)ccc2c1=O
→ -12, 103, 82, 106
> S=C(NCCN1CCOCC1)N1CCN(c2cccc(Cl)c2)CC1
→ 10, ·, 92, 111
> CCc1[nH]nc2c1C(c1cccc(OC(=O)N3CCOCC3)c1)C(C#N)=C(N)O2 (stereo unspecified)
→ ·, 99, 83, 98
> C=COc1ccc(N)cc1
→ -20, 104, 84, 99
> COc1ccc(OC)c(NC(=O)CS(=O)(=O)c2cccc3nsnc23)c1
→ ·, 96, 79, 93
> COc1cccc(-c2cc(C(=O)Nc3ccc(OC)cc3OC)no2)c1
→ -11, 103, 88, 100
> O=C(c1ccco1)N1CCC(C(=O)N2CCc3ccccc32)CC1
→ -17, 103, 95, 94
> O=S(=O)(NCCc1csc2nc(-c3ccccc3)nn12)c1ccccc1
→ 11, 109, 96, 128
> COc1ccc(-c2ccc(=O)n(CC(=O)Nc3ccc(Br)cc3F)n2)cc1
→ ·, 101, 88, 111
> O=C1C2C3C=CC(C3)C2C(=O)N1c1ccc(-c2nc3ccc(N4C(=O)C5C6C=CC(C6)C5C4=O)cc3[nH]2)cc1 (stereo unspecified)
→ -18, 101, ·, ·
> CC(=O)Nc1ccc(C(=O)N(CC#N)CC#N)cc1
→ -4, ·, 97, 103
> CCN(c1ccccc1)c1nc2ccc(Cl)cc2n2cnnc12
→ 0, 110, 68, 79
> CCN(C(=O)CSc1nc2ccccc2n1Cc1ccncc1)c1ccccc1
→ 9, 105, ·, ·
> Cc1cc(C)c(C#N)c(SCC(O)CSc2ccc(Cl)cc2)n1 (stereo unspecified)
→ -6, 102, 99, 90
> COc1ccc(-c2nc(NCCc3c[nH]c4cc(OC)ccc34)sc2C)cc1
→ ·, 101, 81, 103
> Cc1cc2nc(-c3cccnc3)cc(C(F)(F)F)n2n1
→ -27, 106, ·, ·
> Cc1cccc(NC(=O)CSc2cn(Cc3cccc(F)c3)c3ccccc23)c1C
→ ·, 99, 84, 88
> Cc1cc(C)n(-c2nc3c(c(=O)[nH]c(=O)n3C)n2CC(O)COc2ccccc2C)n1 (stereo unspecified)
→ -8, 98, 76, 93
> O=C(CSc1ncn(-c2ccccc2)n1)c1ccccc1
→ -14, 104, ·, ·
> CCOc1ccc(C(=O)Nc2ccc(C(=O)OCc3cc(=O)n4ccsc4n3)cc2)cc1
→ ·, 102, 87, 109
> CC(NS(=O)(=O)c1cccc(Cl)c1)C(=O)N(C)C1CCN(C)CC1 (stereo unspecified)
→ -17, ·, 92, 76
> O=C1C=CC(=O)N1c1ccccc1Oc1ccc(Cl)cc1Cl
→ -2, 109, 9, 24
> CCCc1c(C)nc2ccccc2c1SCC(=O)O
→ -15, 99, 101, 91
> Cc1onc(-c2ccccc2)c1C(=O)OCC(=O)N1CCCC1
→ -14, ·, 88, 104
> Cc1cccc(N2CCN(C(=O)C3CCN(S(=O)(=O)c4cn(C)cn4)CC3)CC2)c1C
→ ·, 96, 87, 88
> Cc1nn(-c2ccccc2)c2c1C(c1cccs1)N(C1CC1)C(c1ccccc1)=N2 (stereo unspecified)
→ -14, ·, 99, 74
> O=C(CN1C(=O)c2ccccc2S1(=O)=O)Nc1ccccc1F
→ -11, 99, ·, ·
> CC(C)N(C(=O)COn1nnc2ccc(S(=O)(=O)N(C)C)cc21)C(C)C
→ -27, ·, 94, 73
> CCC(=O)n1nc(C)c(S(=O)(=O)N2CCC(C)CC2)c1C
→ -25, 101, ·, ·
> Cc1nnc(NC(C)(C)CCl)s1
→ -27, ·, 87, 96
> OC(C#CCCN1CCCCC1)(c1ccccc1)c1ccccc1
→ 2, 102, 96, 108
> CCC(=O)N1CCc2cc(Br)cc(S(=O)(=O)N3CCC(C(=O)NC(C)(C)C)CC3)c21
→ -22, 97, 86, 101
> Cc1cccc(NC(=O)CSc2nncn2C)c1
→ -18, 103, 89, 91
> COC(=O)c1ccc(N2CCC(C)CC2)c(N)c1
→ ·, 104, 88, 89
> CCOC(=O)c1noc2ncnc(NCc3ccccc3OC)c12
→ -10, 100&111, 91, 104
> CC1=NN(c2ccccc2)C(=O)C1C (stereo unspecified)
→ -7, 104, 83, 106
> O=C(NC1CC(=O)N(c2ccc(F)cc2)C1)c1ccco1 (stereo unspecified)
→ ·, 95, 89, 116
> CCOC(=O)CSc1nc2sc3c(c2c(=O)n1Cc1ccccc1)CCC(C(C)(C)C)C3 (stereo unspecified)
→ -11, 111, 93, 101
> CCC(C)NC(=O)c1ccc2c(c1)N(Cc1ccc(C)cc1)CCS2 (stereo unspecified)
→ ·, 102, 97, 95
> CCOc1ccc(NC(=O)c2ccc(NCC(=O)N3CCCCCC3)cc2)cc1
→ -31, ·, 87, 88
> O=c1cc(O)c2cccc3c4ccccc4n1c23
→ -38, 109, 4, 73
> O=C(CCc1ccccc1)NC1CCCCC1
→ -7, 98, 97, 111
> Fc1cccc(Nc2nnc(SCCN3CCCCC3)s2)c1
→ -15, ·, 94, 101
> O=C(NCCCN1CCCCC1)c1cc(Sc2ccc(Cl)cc2)nc2ccccc12
→ ·, 98, 87, 100
> CC(C)(C)C1CCc2nc3ccc(S(=O)(=O)N4CCC(C(=O)O)CC4)cc3c(C(=O)O)c2C1 (stereo unspecified)
→ -4, 101, 87, 99
> Cc1ccc(Cl)cc1N1CCN(C(=O)c2cnn(C(C)(C)C)c2C2CCN(C(=O)OC(C)(C)C)CC2)CC1
→ ·, 102, 93, 84
> CCCCCC(=O)Nc1cc(-c2nc3cc(C)cc(C)c3o2)ccc1C
→ -10, 107, 89, 99
> COc1ccc(C23CC4CC(CC(C4)C2)C3)cc1
→ -8, ·, 84, 94

Continued:
Sequence of screens: HCMV UL50-53 inh, GIV Gai3 FP, Sa growth inh second temp, Sa growth inh
> CCc1c(C)c2c(C)[nH]nc2oc1=O
→ 3, 95, 88, 88
> Cc1nc(N)sc1-c1csc(Nc2cccc(Cl)c2)n1
→ 1, ·, 74, 106
> Cc1sc2ncnc(N3CCN(C)CC3)c2c1-c1ccccc1
→ -13, ·, 91, 89
> O=C(CSc1nccn1Cc1ccc(F)cc1)Nc1ccc2c(c1)OCCO2
→ ·, 99, 87, 95
> Cc1c[n+](CC(=O)c2ccccc2)c(C)cn1
→ -52, 122, 97, 98
> CCc1ccccc1NC(=O)C1CCN(S(=O)(=O)c2ccc3[nH]c(=O)ccc3c2)CC1
→ ·, 109, 100, 136
> O=c1c2oc3ccccc3c2n(Cc2ccc(Cl)cc2)c(=O)n1Cc1ccc2c(c1)OCO2
→ ·, 102, 88, 88
> CCOC(=O)N1CCC(NC(=O)c2ccc3c(c2)N(CC)CCS3)CC1
→ 13, 104, 99, 105
> Cc1ccc2onc(CC(=O)NCCC3=CCCCC3)c2c1
→ -15, 103, 91, 111
> O=S(=O)(c1cc(F)ccc1F)N1CCN(c2cc(-c3cccc(F)c3)ncn2)CC1
→ -34, 103, ·, ·
> c1ccc(CCNc2nc(-c3cccnc3)cs2)cc1
→ -12, ·, 90, 121
> O=C(Nc1cccc(Cl)c1)C1Nc2cc(F)ccc2S(=O)(=O)N1 (stereo unspecified)
→ -26, 101, ·, ·
> Nc1nc(NCc2cccc(Br)c2)nn1-c1ccccc1
→ -13, 107, 77, 86
> Cc1ccccc1Cn1c(SCc2ccc(C(=O)NC3CCCCC3)cc2)nc2ccncc21
→ -24, 96, 91, 107
> Cn1c(SCC(=O)c2ccc(CNC(=O)C(C)(C)C)s2)nnc1C1CC1
→ -26, ·, 77, 94
> Cc1ccc(C(=O)OC2CC(n3ccc(NC(=O)c4ccccc4)nc3=O)OC2CO)cc1 (stereo unspecified)
→ 2, ·, 85, 103
> COc1cccc(C(=O)N2CCN(c3ccccc3)CC2)c1
→ -24, ·, 87, 111
> CNc1nc(-c2cn(CCC#N)c3ccccc23)cs1
→ -44, ·, 77, 95
> O=C(Cn1c(=O)c2cccn2c2cccnc21)NCCN1CCCCCC1
→ -27, 107, 84, 92
> COC(=O)c1ccccc1NC(=S)NC(C)=O
→ 4, 108, 97, 102
> Cc1ccc(N2CC(C(=O)Nc3cc(-n4cnnn4)ccc3Cl)CC2=O)cc1 (stereo unspecified)
→ -36, 98, ·, ·
> CS(=O)(=O)c1noc(-c2cccs2)c1C#N
→ -49, 101, 87, 87
> Cc1ccc(-c2nc3ccccc3s2)cc1NC(=O)c1ccc2ccccc2c1
→ -20, 101, ·, ·
> COC(CNc1ncnc2sc(-c3ccccc3)cc12)OC
→ -41, ·, 66, 64
> CCOC(=O)c1cc(C#N)c(Oc2ccccc2)nc1C(F)(F)F
→ -10, 100, 73, 119
> CC1CCC(N2CCN(c3ncccn3)CC2)C1 (stereo unspecified)
→ -1, 102, 88, 101
> Cc1cc2c(c(Sc3ccc(Cl)cc3)n1)C(=O)NC2=O
→ -54, 101, 88, 102
> O=c1c2cc(Cl)ccc2ncn1Cc1cc(=O)n2ccsc2n1
→ -7, ·, 86, 95
> CCC1CCCCN1CCCN (stereo unspecified)
→ 0, 97, 94, 82
> O=C(Cn1c(-c2ccco2)nc2ccccc21)Nc1ccccc1Cl
→ -22, ·, 81, 122
> COc1ccc(OC)c(C(Nc2nc(C)cc(C)n2)c2cc(C)sc2NC(=O)c2ccccc2)c1 (stereo unspecified)
→ -19, 111, ·, ·
> O=C(NCc1ccc(F)cc1)N1CCSc2ncccc21
→ -25, 101, 93, 107
> CCC(SC1=Nc2ccccc2C2=NC(C)C(=O)N12)C(=O)Nc1ccccc1F (stereo unspecified)
→ -22, 105, ·, ·
> COc1ccc(C(=O)NCC2(c3ccc(OC)c(OC)c3)CCCC2)cc1OC
→ -5, 100, ·, ·
> CNC(=O)c1ccc(OCC(C)C)cc1
→ -34, 104, 93, 111
> CCOC(=O)C1=C(C)N(C)C(=O)NC1c1ccccc1OC (stereo unspecified)
→ ·, 102, 85, 105
> CCCNC(=O)CSc1nnc(-c2ccccc2)n1CC
→ 7, ·, 97, 84
> COc1cccc(C(=O)Nc2cc(C)nn2-c2ccccc2)c1OC
→ -13, ·, 93, 69
> O=C(Oc1ccc(Cl)cc1Cl)c1csnn1
→ 1, 98, 97, 99
> O=C(OCC(=O)N1CCC(Cc2ccccc2)CC1)c1cccnc1Cl
→ 3, ·, 98, 91
> CC1=CC(C)(C)N(C(=O)CSc2nc(C)cc(C)n2)c2ccccc21
→ -12, 101, 83, 99
> CCCCc1ccc(NC(=S)NCCCN2CCOCC2)cc1
→ ·, 100, 85, 98
> O=C(Sc1ncccn1)c1ccc(F)cc1
→ 7, ·, 95, 74
> Cc1ccccc1Nc1cc(C(=O)NC2CCC(C)CC2)c2ccccc2n1 (stereo unspecified)
→ -13, 101, 84, 98
> O=C(c1csc(-c2cccs2)n1)N1CCCN(S(=O)(=O)c2ccc(F)cc2)CC1
→ -24, ·, 86, 130
> CN1CCSc2ccc(C(=O)Nc3cccc(F)c3)cc21
→ -35, 109, 87, 103
> Cc1ccc(S(=O)(=O)c2nnn3c2nc(N2CCCC2)c2sccc23)cc1C
→ ·, 100, 75, 120
> Cc1ccccc1OCC(=O)OCc1cc(=O)n2nc(C3CCCCC3)sc2n1
→ ·, 102, 87, 98
> CCSc1ccccc1C(=O)N1CCN(c2nc3ccccc3s2)CC1
→ ·, 93, 80, 72
> CCOC(=O)c1sc2sc(C(=O)OCC)c(-c3ccc(Cl)cc3)c2c1N
→ 28, 105, 102, 112
> Cc1cc(C)c2c(n1)SCCN2C(=O)NCC(=O)NCc1ccccn1
→ -10, 112, ·, ·

Entries shown so far that have an aryl methoxy group (12):
Sequence of screens: HCMV UL50-53 inh, GIV Gai3 FP, Sa growth inh second temp, Sa growth inh
> COc1ccc(Cl)cc1N1Cc2cc(C)c(C)cc2C1
→ -4, 113, 83, 104
> COc1ccc(OC)c(NC(=O)CS(=O)(=O)c2cccc3nsnc23)c1
→ ·, 96, 79, 93
> COc1cccc(-c2cc(C(=O)Nc3ccc(OC)cc3OC)no2)c1
→ -11, 103, 88, 100
> COc1ccc(-c2ccc(=O)n(CC(=O)Nc3ccc(Br)cc3F)n2)cc1
→ ·, 101, 88, 111
> COc1ccc(-c2nc(NCCc3c[nH]c4cc(OC)ccc34)sc2C)cc1
→ ·, 101, 81, 103
> CCOC(=O)c1noc2ncnc(NCc3ccccc3OC)c12
→ -10, 100&111, 91, 104
> COc1ccc(C23CC4CC(CC(C4)C2)C3)cc1
→ -8, ·, 84, 94
> COc1cccc(C(=O)N2CCN(c3ccccc3)CC2)c1
→ -24, ·, 87, 111
> COc1ccc(OC)c(C(Nc2nc(C)cc(C)n2)c2cc(C)sc2NC(=O)c2ccccc2)c1 (stereo unspecified)
→ -19, 111, ·, ·
> COc1ccc(C(=O)NCC2(c3ccc(OC)c(OC)c3)CCCC2)cc1OC
→ -5, 100, ·, ·
> CCOC(=O)C1=C(C)N(C)C(=O)NC1c1ccccc1OC (stereo unspecified)
→ ·, 102, 85, 105
> COc1cccc(C(=O)Nc2cc(C)nn2-c2ccccc2)c1OC
→ -13, ·, 93, 69
